miR-21 reporter – raises the signal of a miR-21 reporter; HeLa miR-21 FLuc reporter, luciferase, 48 h; Potency, µM (doses to about 38.3 µM), without a hit: at the top dose reporter change, positive = more light; 340,000 tested, under 10 active; AID 2288; active = well fitted rising curve with a large enough effect; inconclusive = small, poorly fitted or top-dose-only effect; inactive = no such curve, though single readings can be large or run the other way;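 note: % of control where 0% means no effect; miR-21 action dims this reporter so a rising signal means less miR-21 action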
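HeLa cells stably expressing CMV-driven firefly luciferase with a downstream miR-21 binding sequence, endogenously expressing miR-21, were treated with titrations (up to about 40uM final) for 48 hours at 37 degree Celsius. Luciferase luminescence was read after lysis.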
* hit, by the source's call; ? = inconclusive; [ ] = dose if it differs, or a comment. Only part of the results is shown; rates above refer to the full screens.

SMILES	miR-21 reporter
COc1ccc(CCNC(=O)c2cnc3sc(N4CCC(C)CC4)nn3c2=O)cc1OC	-1.4%
CCc1ccccc1NS(=O)(=O)c1ccc(-c2coc(C)n2)cc1	11.6%
CC(C)c1ccc(NC(=O)Cn2cc(S(=O)(=O)Cc3ccccc3Cl)c3ccccc32)cc1	?
CC(C)(C)OC(=O)N1CCC(c2c(C(=O)NC3CCN(Cc4ccccc4)CC3)cnn2-c2ccc(F)cc2F)CC1	0.7%
Cc1ccc(CNc2ncnc3c2c(-c2ccccc2)cn3-c2ccccc2)cc1	9.7%
COc1ccc(CNC(=O)c2cc3cccc(OC)c3oc2=O)cc1	-4.4%
Cc1cccc(Cn2c(SCc3ccc(C(=O)N4CCCCCC4)cc3)nc3ccncc32)c1	0.8%
CCOC(=O)c1ccccc1NC(=O)c1sc2ncn(Cc3cccc(F)c3)c(=O)c2c1C	-2.1%
CCOc1ccc(NC(=O)Cn2nc(-c3ccncc3)ccc2=O)cc1	-1.0%
CCOc1ccc(-c2cc(NC(=O)Nc3ccccc3C(F)(F)F)c(C(=O)OC)s2)cc1	-51.3%
CN(C(=O)CSc1nc2ccccc2n1Cc1ccccc1C#N)c1ccccc1	9.7%
CCOC(=O)c1ccccc1NC(=O)Cn1c(=O)n(Cc2nc(-c3ccccc3)no2)c(=O)c2ccccc21	1.1%
Nc1c(-c2nc(-c3cccs3)no2)nnn1-c1cccc(Cl)c1	-39.9%
COc1ccc(S(=O)(=O)N(CC(=O)NCCSc2ccccc2)c2ccc(C)cc2)cc1	-3.2%
CCOc1ccc(NC(=O)CN2CCN(C3CCCCC3)C(=O)C2=O)cc1	2.0%
COc1ccc2c3c(c(=O)oc2c1)C1O[C@](CCCCN2C(=O)c4ccccc4C2=O)(Cc2c1ccc1ccccc21)O3	-0.3%[7.66 µM]
CCOC(=O)C1=C(C)N=c2s/c(=C/c3cccc(OCC(=O)O)c3)c(=O)n2C1c1ccc(F)cc1 (stereo not given)	5.8%
CCCn1c(=O)n(-c2cc(Cl)c(OC)cc2OC)c(=O)c2c3c(sc21)CN(C(C)=O)CC3	-24.1%
O=C(Nc1ccc(F)c(F)c1)c1cc(S(=O)(=O)NCc2ccc3c(c2)OCO3)ccc1F	-0.5%
Cc1c(C(=O)OC2CCCCCC2)[nH]c2c1C(=O)CC(c1ccccc1Cl)C2 (stereo not given)	22.1%
Cc1ccc(Cl)cc1N1CCN(C(=O)CCc2nnc3n(C)c(=O)c4ccccc4n23)CC1	-2.1%
CCc1ccc(N2CCn3c2nc2c3c(=O)n(Cc3c(F)cccc3Cl)c(=O)n2C)cc1	3.4%
CCOC(=O)c1c(C)oc2c1cc(NS(=O)(=O)c1ccc(C)cc1)c1ccccc12	15.2%
COC(=O)c1ccc(NC(=O)C(C)N2Cc3ccccc3C2=O)cc1 (stereo not given)	0.5%
COc1ccc(CCNC(=O)CCCCn2c(=O)c3ccccc3n(Cc3cccc(C)c3)c2=O)cc1OC	-7.6%
Cc1cccc(NC(=O)C2CCN(c3nnc(C)c4c(C)n(-c5ccccc5)nc34)CC2)c1C	-0.8%
Cc1ccc(-n2ncc(C(=O)N3CCN(c4ccccn4)CC3)c2C2CCN(C(=O)OC(C)(C)C)CC2)cc1	1.0%
CCOC(=O)c1cnn(-c2cccc(F)c2)c1C1CCNCC1	-7.9%
Cc1ccccc1Nc1nn2c(=O)c3ccc(C(=O)NCC(C)c4ccccc4)cc3nc2s1 (stereo not given)	25.6%
COc1ccc(NC(=O)CN2C(=O)COc3ccc(S(=O)(=O)NC4CCCC4)cc32)cc1OC	2.1%
Cc1ccc(C(CC(=O)NCC2(c3ccccc3)CCCC2)c2ccccc2)c(O)c1 (stereo not given)	?
CCc1ccc(CNC(=O)CCCn2ccc3cc(S(=O)(=O)N4CCCC4)ccc32)cc1	28.1%
Cc1cc(Nc2cccc(Cl)c2)nc2ccc(NC(=O)Cc3c(F)cccc3Cl)cc12	11.2%
O=C(CSc1nc(-c2ccccc2)no1)N1CCCCC1	-33.0%
CCc1ccc(NC(=O)Cn2c(=O)n(CCC(C)C)c(=O)c3cccnc32)cc1	6.8%
CN(Cc1ccccc1)C(=O)C1CCN(Cc2cc3ccccc3n2Cc2ccccc2)CC1	27.5%
COc1ccc(-c2nc(Cn3c(=O)cc(C)c4c(C)nn(-c5ccccc5)c43)c(C)o2)c(OC)c1	-21.0%
CC(=O)c1cccc(NC(c2ccc(F)cc2)c2nnc(-c3ccccc3)o2)c1 (stereo not given)	14.5%
O=C(Nc1cc(C(F)(F)F)ccc1Cl)c1ccc2c(c1)CCN2S(=O)(=O)c1ccccc1	-7.5%
O=C(Cn1c(=O)n(-c2ccc(F)c(Cl)c2)c(=O)c2sc3ccccc3c21)NC1CCCCC1	1.1%
COc1ccc(OC)c(CNC(=O)c2cc(S(=O)(=O)N3CCC(C)CC3)cn2C)c1	0.3%
Cc1ccc(C(=O)N2CCc3cc(CNS(=O)(=O)c4cccs4)ccc32)cc1	11.4%
COc1ccc(NC(=O)CC2C(=O)N(c3ccc(C)cc3)C(=O)N2CCc2ccccc2)cc1 (stereo not given)	8.1%
Cc1ccc2nc(-c3ccc(Cl)c(NC(=O)COc4cccc(C)c4C)c3)oc2c1	-44.5%
O=C(Nc1ccc(F)cc1F)C1CCN(S(=O)(=O)c2ccc3[nH]c(=O)ccc3c2)CC1	-17.0%
COc1ccc(C2=NC(c3ccncc3)=Nc3ccc(Br)cc3N2)cc1	4.1%
CCn1ccc2c(OCC(=O)Nc3ccccc3C)cccc2c1=O	?
O=C(COc1ccccc1[N+](=O)[O-])Nc1cc(-c2nc3cc(Cl)ccc3o2)ccc1Cl	-21.0%
Cc1c(C(=O)OC2CCCC2)[nH]c2c1C(=O)CC(c1ccc(Cl)cc1)C2 (stereo not given)	-0.3%
CCOc1ccc(CNC(=O)CCC(=O)N2CC3CCCN3c3ccccc32)cc1 (stereo not given)	-0.8%
Fc1ccc(CNCCCSc2nnnn2-c2ccccc2)cc1	0.5%
CCc1ccc(OC(C)C(=O)N2CCC(c3nc4ccccc4s3)CC2)cc1 (stereo not given)	21.9%
CCN(CC)C(=O)Cn1c(=O)n(-c2ccc(Cl)c(Cl)c2)c(=O)c2c(C)c(C(=O)N(CC)CC)sc21	-11.3%
CCOC(=O)c1ccc(NC(=O)c2c(NCc3cccc(OC)c3)sc3c2CCC3)cc1	-8.6%
CSc1ncc(C(=O)NCc2ccc(Cl)cc2)c(C(F)(F)F)n1	0.7%
O=S(=O)(c1ccccc1)c1nc(-c2cccs2)oc1SCc1ccc(F)cc1	-7.8%
Cc1oc(-c2ccccc2F)nc1CS(=O)CC(=O)NC(C)C (stereo not given)	6.0%
C=C(C)Cn1c(SCC(=O)c2ccc(OC)cc2)nc2sc3c(c2c1=O)CCCC3	4.3%
Cc1cccc(NC(=O)CS(=O)(=O)c2nc(-c3ccccc3)cn2-c2cccc(Cl)c2)c1C	-29.2%
CCN(CC)c1ccc(NS(=O)(=O)c2ccc3c(c2)CCCN3C(C)=O)c(C)c1	12.9%

The results go on.
SMILES	miR-21 reporter
Cc1cc(C)c(S(=O)(=O)n2cnc(C)c2)c(C)c1	0.4%
COc1ccc(NC(=O)N2CCC(CN3CCCC3)CC2)c(OC)c1	2.7%
Cc1ccc(S(=O)(=O)NCCc2nnc3ccc(SCC(=O)Nc4ccc(OC(F)(F)F)cc4)nn23)cc1	0.8%
CN(C)c1ccc(C(CNS(=O)(=O)c2ccc(F)cc2)N2CCCC2)cc1 (stereo not given)	?
COc1ccc(N2CCN(C(=O)c3cccc(NC(=O)c4nsc5ccccc45)c3)CC2)cc1	-6.2%
Oc1c(Br)cc(/C=N/n2c(-c3ccccc3)n[nH]c2=S)c(Br)c1O	7.0%
CCOc1ccc(CCNC(=O)C2CCN(Cc3nc(-c4ccccc4C)oc3C)CC2)cc1OCC	0.7%
CCOC(=O)c1sc(N2C(=O)c3oc4cc(C)c(C)cc4c(=O)c3C2c2ccc(C)cc2)nc1C (stereo not given)	-1.9%
CCOc1ccc(NC(=O)Cn2c(=O)n(Cc3ccccc3)c(=O)c3c4c(sc32)CN(C(C)=O)CC4)cc1	10.3%
Cc1cccc(N2CCN(C(=O)CCS(=O)(=O)c3ccc4c(c3)CC(=O)N4C)CC2C)c1 (stereo not given)	-2.9%
Cc1cc(NC(=O)CN(C)S(=O)(=O)c2ccc3c(c2)CCCC(=O)N3)ccc1Br	?
COc1cccc(C2CC(=O)Nc3c2c(=O)n(C)c2nc4ccccc4n32)c1 (stereo not given)	-7.2%
CCc1ccc(CNC(=O)C2CCN(C(=O)c3ccc(-n4c(C)cc5ccccc54)s3)CC2)cc1	23.3%
O=C(c1ccc2c(c1)N(Cc1cccc(Cl)c1)C(=O)c1ccccc1S2=O)N1CCN(c2cccc(C(F)(F)F)c2)CC1 (stereo not given)	15.2%
O=c1c2sc3ccccc3c2n(Cc2ccccc2F)c(=O)n1Cc1ccccc1	0.0%
Fc1ccc(Cc2cn3cc(-c4ccccc4)nc3s2)cc1	25.1%
COc1cc(OC)cc(C(=O)N2CCN(C(=O)COc3ccccc3)CC2)c1	1.2%
COc1cccc(NC(=O)CC(=O)Nc2ccc3nc4n(c(=O)c3c2)CCCCC4)c1	-8.7%
CCOC(=O)c1c(C)[nH]c(C)c1S(=O)(=O)N1CCC(C(=O)N2CCN(c3cccc(Cl)c3)CC2)CC1	0.7%
COC(=O)c1ccccc1-n1cc2c(c1-c1cccc(C)c1)c(=O)n(C)c(=O)n2C	-4.8%
COc1ccc(CC(=O)Nc2sc3c(c2C(=O)Nc2ccccc2)CCCCC3)cc1	-7.6%
COCCNC(=O)C(=O)Nc1c2c(nn1-c1ccccc1)CS(=O)(=O)C2	0.0%
CCn1c(=O)cc(OCC(=O)Nc2ccc(C)c(F)c2)c2ccccc21	3.8%
CCCOC(=O)c1c(NC(=O)c2cc3ccccc3c(=O)o2)sc2c1CCC(C)C2 (stereo not given)	-3.0%
Cc1ccc2nc3c(cc(C(=O)NC4CCCC4)c(=N)n3C(C)C)c(=O)n2c1	3.5%
COc1ccc(Br)cc1CNC(=O)c1cnc2sc(N3CCC(C)CC3)nn2c1=O	-4.3%
NS(=O)(=O)c1ccc(NC(=O)C(=O)Nc2ccc3nc4n(c(=O)c3c2)CCCCC4)cc1	0.4%
CCc1ccccc1NC(=O)[C@H](Cc1ccccc1)N1Cc2ccccc2C1=O	-0.8%
Cc1ccc(-c2nc3c4cnn(-c5cc(Cl)ccc5Cl)c4ncn3n2)cc1	-12.0%
CCCN(C(=O)c1cc2c(=O)oc3ccccc3c2s1)c1ccccc1C	29.5%
O=C(CCCCCn1c(=O)[nH]c2ccccc2c1=O)N1CCN(c2cccc(C(F)(F)F)c2)CC1	?
CCc1ccc(OCC(=O)NCC(c2ccc(Cl)cc2)N2CCOCC2)cc1 (stereo not given)	?
CCOc1ccccc1NC(=O)Cn1c(=O)n(-c2ccc(F)cc2)c(=O)c2sc3ccccc3c21	-1.5%
CCN(Cc1ccccc1)Cc1c(O)ccc2c(=O)c(-c3ccc(Cl)cc3Cl)coc12	-0.9%
Cc1ccn2c(=O)cc(COc3ccc(NC(=O)C(C)(C)C)cc3)nc2c1	-4.6%
CCOC(=O)c1ccc(NC(=O)c2oc3c(c2C)-c2nn(Cc4ccccc4Cl)cc2CC3)cc1	1.8%
CCN(CC)c1ccc(NC(=O)Cn2nc3c(cc2=O)CCCC3)c(C)c1	-14.1%
CCCCSc1nc(-c2cccc(OC)c2)nc2c1Cc1c(CO)cnc(C)c1O2	-2.5%
CCOC(=O)c1c(C)[nH]c(C)c1S(=O)(=O)N(C)CC(=O)N1CCN(c2cccc(Cl)c2)CC1	12.4%
Cc1cccc(N2CCN(CCNC(=O)Nc3ccc(Cl)cc3)CC2)c1C	0.4%
COc1ccc(CNc2nc(-c3ccc(Cl)cc3)nn2C(=O)c2ccccc2)cc1	-23.7%
CCn1nc(C)c2c(-c3ccccc3)cc(=O)n(C(C)C(=O)NCCc3ccc(Cl)cc3)c21 (stereo not given)	0.5%
Cc1ccc(Cl)cc1N1CCN(C(=O)c2ccc3c(c2)CCN3S(=O)(=O)c2ccccc2)CC1	29.7%
CC(C)(C)OC(=O)N1CCC(c2nnc(SCc3cccc(Cl)c3)o2)CC1	?
CCn1c(CN2CCC(C)CC2)nc2cc(NC(=O)c3ccc([N+](=O)[O-])cc3)ccc21	1.6%
